B2AR ag: activates human beta-2 adrenergic receptor causing internalization; AID 504454; P07550; 340,000 compounds, 0.43% hits; response, % (test concentration not listed); Am2.2-beta2AR cells, FAP receptor internalization, flow cytometry; reference of the scale not given here;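 active = response above a set limit, near 3 SD of response in nonfluorescent compounds, cut at about 42% in these data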;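 also: stock transfer was 100 nL into about 11 µL; a reference agonist was the positive control; negative values mostly stem from fluorescent compounds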
Beta cell apopt: beta cell apoptosis inhibition. INS-1E cytokine-induced death, ATP luminescence, 48 h; percent of positive-control rescue, neutral wells zero. protection from apoptosis, % (test concentration not listed). 300,000 compounds, 0.8% hits. AID 435005;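 active = all replicates at 75% or more, or half of them and the mean; inconclusive = half reach 75% but not the mean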;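 also: 0% = cytokine-treated negative control wells and 100% = positive control rescue; higher means more ATP so stronger rescue from cytokine killing; wells of about 40 µL received 100 nL stock; the first replicate is given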
RanGTP-Impb inh: disruptors of Ran-importin-beta complex formation – biochemical, FRET, CFP-Ran, YFP-importin-beta, homogeneous, primary screen; AID 2216; 300,000 compounds, 1.1% hits; inhibition, % (concentration not given with the values); cell-free CFP-Ran/YFP-importin-beta FRET ratio;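 active = most replicates above 15%; inconclusive = exactly half above 15%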;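 also: 0% = DMSO wells and 100% = Ran loaded with GDP instead of GTP; wells of about 40 µL received 100 nL stock; the first replicate is given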
UCH37 inh: human UCH37 deubiquitinating enzyme inhibition | AID 588478 | inhibition, % (no concentration beside the values) | 330,000 compounds, 0.33% hits | purified proteasome/UCH37, Ub-AMC cleavage fluorescence;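 active = mean of two replicates above 20%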;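 also: 0% = compound-free wells with enzyme and 100% = wells lacking proteasome; stock transfer was 100 nL into about 20 µL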
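system = Proteasome-associated human UCH37 deubiquitinase | amount = 0.15 nM proteasome as dispensed | medium = pH 7.4 Tris-HCl (50 mM) with ovalbumin, ATP-MgCl2, DTT | incubation = 30 min preincubation with enzyme, 25 min cleavage at room temperature | detection = AMC fluorescence 355/460 nm | read-out basis = percent inhibition | controls = no-proteasome and no-compound wells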
LANA-H2B inh: blocks KSHV LANA binding to histone H2A/H2B; inhibition, % (test concentration not listed); Q9QR71; cell-free LANA-H2A/H2B peptide, fluorescence polarization; 320,000 compounds, 0.6% hits; in the data active = inhibition mostly above about 10%, no sharp cut-off; inactive = mostly below about 6.7%;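 also: stock transfer was 7.5 nL into about 10 µL; 0% = median of vehicle wells and 100% = median of positive control wells; one replicate is shown; the record names a cut of 25% in any replicate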
Target sequence (Q9QR71 whole entry, looked up): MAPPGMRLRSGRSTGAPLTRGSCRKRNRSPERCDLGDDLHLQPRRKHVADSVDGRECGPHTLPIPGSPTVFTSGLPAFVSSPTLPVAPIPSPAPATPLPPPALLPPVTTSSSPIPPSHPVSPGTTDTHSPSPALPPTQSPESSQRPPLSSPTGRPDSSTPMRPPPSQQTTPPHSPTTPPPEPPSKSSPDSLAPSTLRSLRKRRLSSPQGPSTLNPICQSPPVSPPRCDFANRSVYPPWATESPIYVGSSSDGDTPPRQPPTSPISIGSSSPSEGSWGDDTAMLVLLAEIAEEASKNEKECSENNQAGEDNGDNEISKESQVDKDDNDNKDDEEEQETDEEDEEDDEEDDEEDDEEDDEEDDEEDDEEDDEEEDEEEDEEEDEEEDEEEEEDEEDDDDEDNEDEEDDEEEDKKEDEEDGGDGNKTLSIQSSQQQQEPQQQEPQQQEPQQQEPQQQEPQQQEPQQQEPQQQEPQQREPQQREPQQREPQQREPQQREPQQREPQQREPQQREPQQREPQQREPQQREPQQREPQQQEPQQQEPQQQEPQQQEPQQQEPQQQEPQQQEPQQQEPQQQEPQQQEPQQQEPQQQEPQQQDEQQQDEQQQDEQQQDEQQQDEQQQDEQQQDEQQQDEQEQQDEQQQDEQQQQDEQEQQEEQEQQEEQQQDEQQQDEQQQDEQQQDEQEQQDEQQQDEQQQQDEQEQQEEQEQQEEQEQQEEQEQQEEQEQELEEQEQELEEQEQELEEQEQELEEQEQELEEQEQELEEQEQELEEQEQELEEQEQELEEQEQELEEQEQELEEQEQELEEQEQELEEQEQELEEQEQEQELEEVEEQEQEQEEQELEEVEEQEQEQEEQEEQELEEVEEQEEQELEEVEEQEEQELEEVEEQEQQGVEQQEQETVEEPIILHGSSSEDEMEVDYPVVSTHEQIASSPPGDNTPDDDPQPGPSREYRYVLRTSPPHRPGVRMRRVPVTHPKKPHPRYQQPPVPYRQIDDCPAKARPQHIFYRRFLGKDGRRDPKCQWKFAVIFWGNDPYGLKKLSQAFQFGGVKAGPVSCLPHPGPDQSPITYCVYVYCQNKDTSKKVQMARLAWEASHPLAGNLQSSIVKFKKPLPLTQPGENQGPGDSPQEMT
Bfl-1 A1 inh: inhibitors of the anti-apoptotic protein A1, read as caspase activation | AID 2462 | 330,000 compounds, 0.066% hits | caspase activation, % (no concentration beside the values) | MEF A1-2A-BIM cells, Caspase-Glo 3/7 luminescence, 3 h; percent of clofoctol response, vehicle zero;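 active = over half of replicate activation scores above 10%, or exactly half above 10 with the replicate mean above 10; inconclusive = replicate mean below 10 yet half the replicates above 10; inactive = over half of replicates below 10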;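 also: wells of about 30 µL received 50 nL stock; many hits fall short of the cut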
T cruzi inh: blocks replication of Trypanosoma cruzi; T. cruzi beta-gal in NIH3T3, luminescence, 90 h; inhibition, % (test concentration not listed); 300,000 compounds, 1.4% hits; AID 1885;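 active = mean inhibition across valid replicates above about 55%, limit read from the data; inconclusive = mean below that limit but half or more replicates reach it; inactive = mean below it, under half of replicates reach it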;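 also: signal also drops with host cell toxicity which is not excluded here; 0% = plate median of DMSO wells and 100% = zero luminescence signal; higher percent means less beta-gal luminescence so fewer parasites; stock transfer was 50 nL into about 50 µL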
Calb FLC: C. albicans growth modulation with fluconazole; C. albicans CaCi-2 (fluconazole-resistant clinical isolate) + fluconazole, Alamar Blue growth, 48 h; 300,000 compounds, 0.57% hits; growth inhibition, % (test concentration not listed);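 active = most replicates above 75%; inconclusive = exactly half above 75%; inactive = most below 75%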;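 also: all wells also contain fluconazole at 8 µg/ml as a sub-toxic cotreatment; 0% = median of DMSO wells and 100% = median of geldanamycin control wells; wells of about 8 µL received 7.5 nL stock; the first replicate is given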
* hit, by the source's call.

For Cc1ccc(S(=O)(=O)N(CC(=O)NCc2ccncc2)Cc2ccc(F)cc2)cc1 the results were B2AR ag -3, Beta cell apopt 3, RanGTP-Impb inh 1.8, UCH37 inh -0.9, LANA-H2B inh -0.6, Bfl-1 A1 inh 2.2, T cruzi inh 14 and Calb FLC 0.
`Cc1ccc(NC(=O)CN(C)C(=O)CCC(=O)N2CCOCC2)cc1` gave B2AR ag -6, Beta cell apopt -4, RanGTP-Impb inh -3.6, UCH37 inh -1.8, LANA-H2B inh 4.4, Bfl-1 A1 inh 0.3, T cruzi inh -8 and Calb FLC 15.
For CSCCC(NS(=O)(=O)c1ccccc1F)C(=O)OCc1ccccc1Cl (stereo unspecified) the results were B2AR ag -4, Beta cell apopt 4, RanGTP-Impb inh -0.6, UCH37 inh -3.3, LANA-H2B inh -5.1, Bfl-1 A1 inh 0.7, T cruzi inh -17 and Calb FLC 5.
`O=C(CN1CCN(c2ccccc2F)CC1)N1N=CCC1c1ccccc1` (stereo unspecified) gave B2AR ag 10, Beta cell apopt 2, RanGTP-Impb inh 0.8, UCH37 inh -0.4, LANA-H2B inh -3.0, Bfl-1 A1 inh 0.0, T cruzi inh -5 and Calb FLC 3.
O=C(CCc1nnc2ccc(N3CCCCC3)nn12)NCC1CCN(Cc2ccc(F)cc2)CC1 was read as B2AR ag -17, Beta cell apopt 0, RanGTP-Impb inh 2.1, UCH37 inh 1.6, LANA-H2B inh 2.4, Bfl-1 A1 inh -0.6, T cruzi inh 28 and Calb FLC -18.
For N#Cc1ccccc1NC(=O)COC(=O)c1ccc(S(=O)(=O)N2CCCC2)cc1 the results were B2AR ag 11, Beta cell apopt 3, RanGTP-Impb inh 0.7, UCH37 inh 0.8, LANA-H2B inh 5.0, Bfl-1 A1 inh 0.1, T cruzi inh -12 and Calb FLC -5.
For CN(C)CCCN(C(=O)c1ccc(S(=O)(=O)N2CCc3ccccc32)cc1)c1nc2ccc(F)cc2s1 the results were B2AR ag 17, Beta cell apopt -7, RanGTP-Impb inh 3.9, UCH37 inh 2.7, LANA-H2B inh 5.9, Bfl-1 A1 inh -0.5, T cruzi inh 44 and Calb FLC -3.
For CCN1CCN(C(C(=O)NC2CCCCC2)c2ccc(Cl)cc2)CC1 (stereo unspecified) the results were B2AR ag 5, Beta cell apopt -12, RanGTP-Impb inh -0.5, UCH37 inh 4.9, LANA-H2B inh 2.6, Bfl-1 A1 inh 0.8, T cruzi inh -9 and Calb FLC -3.
Cc1ccc(C2(C)NC(=O)N(CC(=O)Nc3c(C)n(C)n(-c4ccccc4)c3=O)C2=O)cc1 (stereo unspecified) was read as B2AR ag -11, Beta cell apopt -4, RanGTP-Impb inh 0.9, UCH37 inh 2.1, LANA-H2B inh -0.4, Bfl-1 A1 inh -0.7, T cruzi inh 10 and Calb FLC -6.
For O=C(Cc1coc2ccc3ccccc3c12)NC1CCCc2ccccc21 (stereo unspecified) the results were B2AR ag 5, Beta cell apopt -5, RanGTP-Impb inh 6.2, UCH37 inh -2.4, Bfl-1 A1 inh 0.4, T cruzi inh 40 and Calb FLC -2.
CCS(=O)(=O)c1cc([N+](=O)[O-])c(Sc2ccccc2NC(C)=O)s1 was read as B2AR ag 7, Beta cell apopt -9, RanGTP-Impb inh 3.6, LANA-H2B inh -2.8, Bfl-1 A1 inh -1.1, T cruzi inh 23 and Calb FLC 13.
For Cc1ccc(OCc2nnc(SCC(=O)c3cccs3)n2-c2ccccc2)cc1C the results were B2AR ag -1, Beta cell apopt -1, RanGTP-Impb inh -1.2, UCH37 inh -0.2, LANA-H2B inh 6.6, Bfl-1 A1 inh -1.3, T cruzi inh 26 and Calb FLC 5.
Screening CCOc1ccc(NC(=S)N2c3ccccc3CC2C)cc1 (stereo unspecified) returned B2AR ag 7, Beta cell apopt -4, RanGTP-Impb inh 2.0, UCH37 inh -2.1, LANA-H2B inh -4.9, Bfl-1 A1 inh -0.1, T cruzi inh 3 and Calb FLC 1.
Screening CSc1cccc(NC(=O)CCc2ccccc2)c1 returned B2AR ag -3, RanGTP-Impb inh -0.8, UCH37 inh 1.1, LANA-H2B inh 4.1, Bfl-1 A1 inh -0.3, T cruzi inh -12 and Calb FLC -5.
Cc1ccc(S(=O)(=O)CCC(=O)OCC(=O)NNC(=O)c2ccc([N+](=O)[O-])cc2)cc1 was read as B2AR ag -1, Beta cell apopt -9, UCH37 inh 3.3, LANA-H2B inh -0.3 and Bfl-1 A1 inh 0.2.
`CCCC(C)C(=O)NCc1ccc2c(c1)OCO2` (stereo unspecified) gave B2AR ag -2, Beta cell apopt -2, RanGTP-Impb inh 4.1, UCH37 inh -0.9, LANA-H2B inh 0.8, Bfl-1 A1 inh 0.8, T cruzi inh -11 and Calb FLC -4.
For CC(NCC1(N2CCOCC2)CCCCC1)C(=O)Nc1ccc(Cl)cc1Cl (stereo unspecified) the results were B2AR ag 14, Beta cell apopt -6, RanGTP-Impb inh 4.7, UCH37 inh 2.6, LANA-H2B inh -2.0, Bfl-1 A1 inh 0.2, T cruzi inh 35 and Calb FLC -3.
`O=C(O)c1ccccc1-n1c(-c2ccccc2)cc2c1CCCC2=O` gave B2AR ag -4, Beta cell apopt 4, RanGTP-Impb inh 1.4, UCH37 inh 1.0, LANA-H2B inh 2.7, Bfl-1 A1 inh 1.8, T cruzi inh -6 and Calb FLC 3.
Screening CCN(CC(=O)NCc1cccs1)C(=O)COc1ccc(C(C)=O)cc1 returned B2AR ag -6, Beta cell apopt 0, UCH37 inh -0.1, LANA-H2B inh active and Bfl-1 A1 inh 0.8.
Cc1ncc2c(c1OC(=O)c1ccccc1)COC(C)(C)OC2 was read as B2AR ag -1, Beta cell apopt 9, RanGTP-Impb inh -2.6, UCH37 inh 5.2, LANA-H2B inh -6.5, Bfl-1 A1 inh 0.0, T cruzi inh 5 and Calb FLC 5.
For CC1Cc2ccccc2N1CC(=O)NCc1ccc2c(c1)OCO2 (stereo unspecified) the results were B2AR ag 2, Beta cell apopt 2, RanGTP-Impb inh -0.1, UCH37 inh 6.1, LANA-H2B inh 2.3, Bfl-1 A1 inh 0.6, T cruzi inh 6 and Calb FLC -26.
`COc1ccc(/C=C2\NC(=S)N(CC3CCCO3)C2=O)c(OC)c1C` (stereo unspecified) gave B2AR ag 0, Beta cell apopt -10, RanGTP-Impb inh 5.7, UCH37 inh -0.7, LANA-H2B inh 1.0, Bfl-1 A1 inh -0.2, T cruzi inh 8 and Calb FLC 21.
Screening COc1ccc(S(=O)(=O)Nc2ccc(NC(C)=O)cc2)cc1OC returned B2AR ag 15, Beta cell apopt -8, RanGTP-Impb inh 5.4, UCH37 inh 6.1, LANA-H2B inh -7.2, Bfl-1 A1 inh -0.3, T cruzi inh -3 and Calb FLC -6.
`CCC1C(=O)Nc2nc(-c3ccccc3)c(-c3ccccc3)n2N=C1C` (stereo unspecified) gave B2AR ag -17, Beta cell apopt -2, RanGTP-Impb inh -1.5, UCH37 inh -1.1, LANA-H2B inh 1.0, Bfl-1 A1 inh -0.2, T cruzi inh 14 and Calb FLC -19.
`CC(C)(C)C1=NN(c2ccc([N+](=O)[O-])cc2)C(c2ccccc2)C1` (stereo unspecified) gave B2AR ag 3, Beta cell apopt 7, RanGTP-Impb inh 11, UCH37 inh -1.4, LANA-H2B inh 0.6, Bfl-1 A1 inh 0.0, T cruzi inh 44 and Calb FLC -10.
O=[N+]([O-])c1c(NCCO)cc(N2CCC3(CC2)OCCO3)c2nonc12 was read as B2AR ag 17, Beta cell apopt -2, RanGTP-Impb inh -1.4, UCH37 inh 9.5, LANA-H2B inh -1.8, Bfl-1 A1 inh 1.2, T cruzi inh -5 and Calb FLC -3.
Screening NC(=O)CC(NC(=O)c1cccc(Br)c1)c1ccc(N2CCN(c3ccccn3)CC2)c([N+](=O)[O-])c1 (stereo unspecified) returned B2AR ag 97*, Beta cell apopt -3, RanGTP-Impb inh inconclusive, UCH37 inh 0.0, LANA-H2B inh -5.4, Bfl-1 A1 inh 0.8, T cruzi inh -20 and Calb FLC -25.
CCOCc1nnc(NC(=O)C2CCN(C(=O)c3ccco3)CC2)s1 was read as B2AR ag -11, Beta cell apopt -1, RanGTP-Impb inh 0.0, UCH37 inh 1.0, LANA-H2B inh 1.6, Bfl-1 A1 inh 0.1, T cruzi inh -16 and Calb FLC 3.
For Cn1c(=O)c(C(=O)NCc2ccccc2)c(O)c2ccccc21 the results were B2AR ag 4, Beta cell apopt -9, RanGTP-Impb inh -2.8, UCH37 inh -2.9, LANA-H2B inh 2.0, Bfl-1 A1 inh -0.1, T cruzi inh -4 and Calb FLC 14.
`C[C@H](CO)N1C[C@H](C)[C@@H](CN(C)C(=O)Nc2ccc(C(F)(F)F)cc2)Oc2ccc(NC(=O)Cn3cnnn3)cc2C1=O` gave B2AR ag 7, Beta cell apopt -6, UCH37 inh 0.1, LANA-H2B inh -0.4 and Bfl-1 A1 inh -0.2.
COc1ccc2c(=O)c3c(=O)n(-c4ccccc4)c(-c4ccco4)nc3oc2c1 was read as B2AR ag -6, Beta cell apopt -7, RanGTP-Impb inh -3.2, UCH37 inh -5.6, LANA-H2B inh -6.4, Bfl-1 A1 inh 0.3, T cruzi inh -4 and Calb FLC -2.
COc1ccc(CN(C(=O)c2cc3ccccc3oc2=O)C2CCCC2)cc1 was read as B2AR ag 0, Beta cell apopt -8, RanGTP-Impb inh -0.1, UCH37 inh 2.9, LANA-H2B inh -4.5, Bfl-1 A1 inh 0.5, T cruzi inh 4 and Calb FLC -5.
Screening COC(=O)CSc1nnc(COc2cccc3ccccc23)o1 returned B2AR ag 6, Beta cell apopt -7, RanGTP-Impb inh -1.0, UCH37 inh 5.6, LANA-H2B inh 0.6, Bfl-1 A1 inh 0.0, T cruzi inh -21 and Calb FLC -19.
O=C(Nc1ccccc1F)c1ccccc1C(=O)Nc1ccccc1F was read as B2AR ag 3, Beta cell apopt 2, RanGTP-Impb inh 1.7, UCH37 inh 4.1, LANA-H2B inh -4.0, Bfl-1 A1 inh 0.3, T cruzi inh -4 and Calb FLC 0.
`CS(=O)(=O)Nc1ccc(C(=O)Nc2ccc(S(=O)(=O)N3CCCCC3)cc2)cc1` gave B2AR ag 5, Beta cell apopt 4, RanGTP-Impb inh -3.7, UCH37 inh 3.4, LANA-H2B inh 1.3, Bfl-1 A1 inh 0.3, T cruzi inh -4 and Calb FLC 5.
For O=C(NC1=NCCS1)c1cc(-c2ccc(F)cc2)nc2ccccc12 the results were B2AR ag -11, Beta cell apopt -8, RanGTP-Impb inh 8.7, UCH37 inh 5.8, LANA-H2B inh 1.7, Bfl-1 A1 inh -1.5, T cruzi inh 7 and Calb FLC 48.
For CCc1ccnc(NS(=O)(=O)c2ccc3c(c2)CCO3)c1 the results were B2AR ag 6, Beta cell apopt -3, RanGTP-Impb inh -0.8, UCH37 inh 2.8, LANA-H2B inh -0.3, Bfl-1 A1 inh 0.2, T cruzi inh -2 and Calb FLC 0.

Source: PubChem
